Ecoli growth = E. coli growth inhibition, primary screen, OD600; Escherichia coli growth, 23 h; hits give low values; OD600 absorbance (test concentration not listed); actives 0.21% (n = 330,000); AID 1053175, 2014;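 active means OD600 absorbance below the run mean of sample wells minus 3.6 SD, in any replicate, cut at about 0.56 in these data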;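 further: stock transfer was 300 nL into about 60 µL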
UCH37 DUB inh = inhibitors of human UCH37 deubiquitinase, primary screen, biochemical, Ub-AMC cleavage, fluorescence; actives 0.33% (n = 330,000); purified proteasome/UCH37; inhibition, % (no concentration beside the values);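 active means mean of two replicates above 20%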;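 further: 0% = compound-free wells with enzyme and 100% = wells lacking proteasome; stock transfer was 100 nL into about 20 µL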
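Material: Human UCH37 enzyme supplied as purified proteasome complex | Schedule: 30 min compound-proteasome preincubation then 25 min substrate reaction, room temperature | Detection: AMC fluorescence from Ub-AMC cleavage, excitation 355 nm, emission 460 nm | Benchmarks: Wells without proteasome as full block, compound-free enzyme plus substrate as uninhibited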
Vif TR-FRET = inhibitors of Vif binding to APOBEC3G peptide, primary screen, biochemical, TR-FRET, GST-Vif 1-94, biotin-A3G peptide, dose response retest (AID 1117319) | TR-FRET GST-Vif / biotin-A3G peptide binding; higher % means a stronger effect; test concentration not given here; strong numbers were not always called active | actives 0.57% (n = 260,000) | inhibition, %; hits with a dose series show IC50 in µM;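 active means above the screen mean plus three standard deviations and confirmed in dose response; inconclusive means results disagree or hit not tested in dose response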;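 further: Vif residues 1-94 fused to GST binding biotinylated APOBEC3G peptide 110-148; 0% = full assay without inhibitor and 100% = GST in place of GST-Vif; retest series ran down from 100 µM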
FGF22 binding = binders of human FGF22 protein, primary screen, FGF22 synaptogenesis inhibitor project, biophysical, thermal shift, single point; Fibroblast growth factor 22 (Homo sapiens), Q9HCT0; AID 651658, 2012; recombinant FGF22 thermal shift, SYPRO orange fluorescence; percent of sucrose octasulfate shift, DMSO zero; actives 1.5% (n = 340,000); calls only at 9.99 µM;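 active means melting point raised past a set limit in the mean and every replicate; inconclusive means no clear call; three in four hits are not shown here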
Target sequence (Q9HCT0 whole entry, looked up): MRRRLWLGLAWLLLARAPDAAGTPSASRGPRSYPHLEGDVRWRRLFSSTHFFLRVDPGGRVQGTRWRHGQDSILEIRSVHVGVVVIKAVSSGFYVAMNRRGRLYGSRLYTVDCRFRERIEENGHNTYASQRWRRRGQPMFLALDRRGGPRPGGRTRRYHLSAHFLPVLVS
RanGTP-Imp inh = inhibitors of RanGTP-importin-beta interaction, primary screen, biochemical, FRET, CFP-Ran, YFP-importin-beta, homogeneous; inhibition, % (concentration not given with the values); cell-free CFP-Ran/YFP-importin-beta FRET ratio; actives 1.1% (n = 300,000); AID 2216, 2009;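 active means most replicates above 15%; inconclusive means exactly half above 15%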;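 further: 0% = DMSO wells and 100% = Ran loaded with GDP instead of GTP; wells of about 40 µL received 100 nL stock; the first replicate is given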
MLL AF4-AF9 inh = inhibitors of AF4 peptide binding to AF9, primary screen, biochemical, AlphaScreen, biotin-AF4 peptide, FLAG-AF9, single point | Protein AF-9 (Homo sapiens), P42568 | inhibition, % at 10 µM | actives 0.47% (n = 350,000) | AID 651704, 2012;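 active means every replicate reaching a set inhibition limit, whatever the replicate mean, cut at about 25% in these data; inconclusive means mean inhibition reaches that limit but some replicates miss it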;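 further: 0% = plate neutral control median and 100% = total signal loss; the record names both 10 and 1 µM as test concentration; the first replicate is given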
Target sequence (P42568 whole entry, looked up): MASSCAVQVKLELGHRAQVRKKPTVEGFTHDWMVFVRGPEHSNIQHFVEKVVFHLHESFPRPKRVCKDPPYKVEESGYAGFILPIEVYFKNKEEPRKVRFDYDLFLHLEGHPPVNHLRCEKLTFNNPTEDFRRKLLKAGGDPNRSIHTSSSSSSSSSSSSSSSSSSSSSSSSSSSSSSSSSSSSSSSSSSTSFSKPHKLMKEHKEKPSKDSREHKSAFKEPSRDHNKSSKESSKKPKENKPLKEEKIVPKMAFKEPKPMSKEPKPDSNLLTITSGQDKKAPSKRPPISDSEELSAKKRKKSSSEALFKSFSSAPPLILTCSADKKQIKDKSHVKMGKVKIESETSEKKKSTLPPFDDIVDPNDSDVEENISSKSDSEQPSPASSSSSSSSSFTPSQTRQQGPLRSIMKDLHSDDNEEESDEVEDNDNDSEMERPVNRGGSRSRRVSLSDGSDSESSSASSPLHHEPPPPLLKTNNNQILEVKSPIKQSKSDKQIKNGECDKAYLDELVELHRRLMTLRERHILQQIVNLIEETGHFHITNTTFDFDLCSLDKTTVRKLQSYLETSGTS
HNF4A DNA FP = change in binding of human HNF4A to DNA, primary screen, biochemical, fluorescence polarization, FITC-DNA. 1 h. AID 1224865, 2016. actives 0.3% (n = 360,000). Hepatocyte nuclear factor 4-alpha (Homo sapiens), P41235. activity change, % at 10 µM; in the data active means activity change above about 30%, passing the limit was not always enough;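 further: controls were the assay level and a saturating level of protein; the project sought stronger binding though the title names inhibitors; some compounds called inactive have numbers as strong as hits; positive values seem to mean higher polarization but the record does not say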
* marks the source's active call; other numbers are inactive results; i = inactive; ? = inconclusive; · = no result given; & = joins results of further samples. Only part of the results is shown; rates above refer to the full screens.

compound | Ecoli growth | UCH37 DUB inh | Vif TR-FRET | FGF22 binding | RanGTP-Imp inh | MLL AF4-AF9 inh | HNF4A DNA FP
CCCCN(CCCC)C1=Nc2ccccc2N/C1=C(/C#N)C(=O)OCC | 0.79 | -3.7 | 1% | · | 0.5 | · | 3.5
Cc1nc2cc(NC(=O)NCCC3=CCCCC3)ccc2o1 | 0.7 | 0.7 | 8% | i | 2.4 | -41 | 0.9
COc1ccc(OC)c(CC(NC(C)=O)C(=O)NC2CCN(c3cc(C)nc4ncnn34)CC2)c1 (centres undefined) | 0.66 | 5.2 | 1% | i | 2.4 | -2.0 | ·
Cc1ccn(CCC(=O)Nc2ccc3c(c2)OCO3)n1 | 0.72 | 0.9 | 17% | i | ? | 7.4 | -1.5
CCC(C)[C@H]1CN=C(N)N1CCc1cccc(F)c1 (some centres undefined) | · | 0.2 | · | · | 2.3 | · | -0.3
NC(=O)c1ncc(C(F)(F)F)cc1Cl | 0.68 | 0.5 | · | i | -1.8 | -2.4 | -6.9
O=C(/C=C/c1cccc(F)c1)Nc1ccc(S(=O)(=O)N2CCOCC2)cc1 | 0.72 | 6.0 | -9% | i | · | -9.3 | 5.8
Cc1noc2ncnc(Sc3ccc(Br)cc3)c12 | 0.65 | 6.4 | 2% | i | -0.7 | -4.8 | -1.8
Cc1nnc(SCC(=O)N2CCC(C(N)=O)CC2)s1 | 0.67 | 0.6 | 13% | · | -3.4 | · | -2.3
COc1cccc(NC(=O)NCc2ccc(F)cc2)c1 | 0.69 | 2.0 | · | i | -2.6 | -1.8 | -5.2
CC1=CC(=C2C(=O)c3ccccc3C2=O)C=C(C)N1Cc1ccco1 | 0.65 | 10.0 | 3% | · | -1.5 | 0.2 | 1.3
O=C(CCc1nc2ccccc2s1)OCc1ccccc1F | 0.71 | 2.8 | 1% | i | -1.4 | -2.8 | -6.7
O=C(O)CCC(=O)Nc1ccc(-n2ccc(C(F)(F)F)n2)cc1 | 0.68 | 3.4 | -11% | i | -4.1 | -5.8 | 0.7
CCCC(=O)NC(=S)c1c(C)n(C)n(-c2ccccc2)c1=O | 0.71 | 0.9 | -4% | i | ? | -1.8 | -0.5
O=C(O)CCCn1cc(NC(=O)c2ccco2)cn1 | 0.7 | 1.4 | · | i | ? | -0.8 | -0.9
COc1ccc2cc(C3CC(c4cccs4)=NN3S(C)(=O)=O)c(Cl)nc2c1 (centres undefined) | 0.71 | 1.3 | 0% | · | · | · | 4.4
OCCNCCSc1nc(C2CCCCC2)n(-c2ccccc2Cl)n1 | 0.69 | 0.5 | -6% | i | -0.1 | 5.0 | -4.1
CCS(=O)(=O)Nc1cccc(-c2nc3cccnc3s2)c1 | 0.7 | -1.2 | -3% | i | -0.2 | -11 | -2.9
Cn1c(=O)c2c(nc(Br)n2CC(=O)c2cccs2)n(C)c1=O | 0.75 | 5.8 | 7% | · | 1.9 | · | -1.7
CCC(=O)c1ccc(N2CCC(C)CC2)c(F)c1 | 0.7 | -0.5 | 4% | i | 3.2 | -2.3 | -1.5
O=C(NC(=S)NCCCN1CCOCC1)c1cccc2ccccc12 | 0.66 | 1.1 | 1% | i | -0.4 | 3.8 | -1.1
CN(C)c1ccc(C(=O)NN2C(=O)c3ccccc3C2=O)cc1 | 0.67 | 4.6 | -3% | · | -3.7 | -0.4 | 5.6
CCOc1c(C)cc2[nH]c(CCC(=O)O)nc2c1C | 0.66 | 2.2 | 2% | · | 3.3 | · | -1.5
CCOc1ccc(S(=O)(=O)N2CCN(C(=O)c3cc(-c4ccccc4)nn3-c3ccccc3)CC2)cc1 | 0.66 | 0.4 | 0% | i | 2.1 | -4.4 | -2.8
COc1cc(S(=O)(=O)NCCOC23CC4CC(CC(C4)C2)C3)c(OC)cc1Cl | 0.68 | 2.3 | · | i | -5.0 | 7.5 | 2.3
CCOC(=O)C1=C(C)C(c2cccc(Oc3ccccc3)c2)NC(=S)N1 (centres undefined) | 0.7 | 4.6 | -6% | i | -1.4 | 4.3 | 4.8
COc1ccc(NC(=O)N(C2CCCCC2)C(C)c2cccnc2)c(OC)c1 (centres undefined) | 0.71 | 4.7 | 4% | · | -2.8 | · | 1.8
O=C(N/N=C/c1ccccc1C(=O)O)c1cccc(S(=O)(=O)N2CCOCC2)c1 | · | · | · | i | · | -1.0 | 1.8
CCC(C)(C)C1CCC2(CC1)NC(=O)N(CC(=O)N(C)Cc1ccc(OC(F)F)cc1)C2=O (centres undefined) | 0.64 | 2.4 | -5% | i | -1.6 | -32 | -1.8
Cc1ccc(C(=O)N/C(=C\c2cccs2)C(=O)NCc2cccnc2)cc1 | 0.7 | 4.5 | -3% | · | 2.5 | · | -0.4
O=C(c1cc(N2C(=O)C3C4CCC(C4)C3C2=O)ccc1Cl)N1CCN(c2ccccc2F)CC1 (centres undefined) | 0.63 | 1.7 | · | · | -0.1 | · | -5.1
COc1ccc(NC(=O)N(C)C[C@H]2Oc3ccc(NS(=O)(=O)c4ccc(F)cc4)cc3C(=O)N([C@H](C)CO)C[C@@H]2C)cc1 | · | 2.9 | · | i | · | -3.9&2.5 | 2.7
CC(=NNC(=O)c1ccncc1)c1cccc(Br)c1 | 0.64 | 5.3 | 8% | i | · | -6.6 | -1.0
C=CCOC(=O)C1=C(C)NC(=O)NC1c1cc(Cl)cc(Cl)c1OC (centres undefined) | 0.68 | 5.0 | · | i | 5.5 | -0.4 | -0.2
CCOc1ccc2nc(NC(=O)Cn3c(C)csc3=O)sc2c1 | 0.69 | 3.1 | -9% | i | · | -1.9 | -1.5
COc1ccccc1CCn1cnc(Cc2cccc(F)c2)c1C(C)C | · | · | · | i | · | 17 | -0.5
COc1ccc([N+](=O)[O-])cc1N1C(=O)c2cccnc2C1=O | 0.65 | 3.3 | · | i | 3.9 | 4.4 | -0.8
CCOC(=O)c1sc(NC(=O)CSc2n[nH]c(-c3ccc(Cl)cc3Cl)n2)c(C#N)c1C | 0.67 | 0.5 | -9% | · | 0.9 | · | 3.8
Oc1c(Br)cc(Br)cc1C=Nc1ccc2[nH]ncc2c1 | 0.61 | -11 | 8% | i | 3.3 | -3.8 | -3.7
COc1cc(OC)cc(C(=O)NCc2ccc(-n3cccc3)cc2)c1 | 0.69 | 2.2 | 10% | i | 3.7 | -1.5 | -3.5
Cc1cccc(NC(=O)COc2ccc(Br)cc2)n1 | 0.63 | 2.3 | 6% | · | 6.7 | · | 3.4
COc1ccc(C(=O)c2ccc3oc(-c4ccc(OC)cc4)c(C#CCCO)c3c2)cc1 | 0.7 | 0.6 | · | i | -1.3 | · | 0.9
CC(=O)C1=C(O)C(=O)N(CCCN2CCOCC2)C1c1ccccc1[N+](=O)[O-] (centres undefined) | 0.67 | -0.1 | 4% | · | -4.2 | · | ·
CN(CC(=O)NC(=O)Nc1ccccc1F)Cc1ccccc1 | 0.65 | 1.9 | 0% | i | · | -3.2 | -1.6
O=C(CSc1nccc(=O)[nH]1)Nc1ccc(S(=O)(=O)N2CCOCC2)cc1 | 0.71 | 6.3 | · | i | -0.5 | 1.8 | -4.2
CC(C)(C)c1ccc(S(=O)(=O)NC(Cc2ccccc2)C(=O)O)cc1 (centres undefined) | 0.69 | 1.6 | 12% | · | 4.6 | · | -1.4
CCOc1ccc(NC(=O)CN2CCN(CC(=O)Nc3ccc(F)cc3)CC2)cc1 | 0.68 | 2.4 | 19% | · | 1.1 | · | 2.5
COc1cc(C)nc(N2CCCC(C(=O)Nc3cccc(Cl)c3Cl)C2)n1 (centres undefined) | 0.72 | 1.8 | 3% | · | 8.4 | · | -1.3
O=CN1CCN(C(C(=O)NC2CCCCC2)c2cc3c(cc2[N+](=O)[O-])OCO3)CC1 (centres undefined) | 0.65 | -4.7 | 16% | i | -8.6 | -4.7 | 0.3
Fc1cc(F)c(F)c(SCCc2ccncc2)c1F | 0.66 | 0.7 | 20% | · | ? | · | 1.9
CN1CCN(CC#CCC2(O)c3ccccc3-c3ccccc32)CC1 | 0.68 | 3.8 | 1% | i | 4.1 | -4.2 | -3.3
CCC(CO)Oc1cc(NCc2ccccc2C)c2ncn(C(C)C)c2c1 (centres undefined) | 0.66 | 1.2 | · | i | · | 7.5 | -1.9
Cc1ccc(Cn2ccc(NC(=O)c3cc(-c4ccc5c(c4)OCO5)on3)n2)cc1 | 0.72 | -4.1 | -8%&9% | i | 6.5 | 5.1 | -2.3
O=C(CN1C(=O)NC2(CCCC2)C1=O)Nc1cccc(-c2nnc3n2CCCCC3)c1 | 0.75 | 1.0 | 14% | · | · | · | 4.3
CS(=O)(=O)N(CC(=O)NCCSC1CCCCC1)c1cccc(F)c1 | 0.67 | -0.3 | · | i | ? | -6.1 | 3.3
CC1=NN(c2ccccc2)C(=O)/C1=C/c1cn(C)c2ccccc12 | 0.72 | 1.5 | -1% | i | ? | · | 2.7
Cc1ccccc1NS(=O)(=O)c1ccc2[nH]cc(C(=O)NCCCN3CCOCC3)c(=O)c2c1 | 0.77 | 0.2 | 14%&-2% | · | 4.4 | · | 0.1
Cc1c(NC(=O)CN2CCN(c3ccccc3)CC2)c(=O)n(-c2ccccc2)n1C | 0.67 | -0.4 | 2% | · | -1.1 | · | -1.1
OCCC1CN(Cc2cnc(-c3cccc4ccccc34)nc2)CCN1C1CCCCC1 (centres undefined) | 0.65 | 1.6 | -6% | i | -0.7 | 6.2 | -3.7
O=C(Nc1ccc(F)cc1)NC1(C(=O)NCc2cccs2)CCCCC1 | 0.66 | 1.6 | 5% | i | -5.5 | 1.6 | 0.8

Brought forward from above: 3 compounds; new compounds follow.
compound | Ecoli growth | UCH37 DUB inh | Vif TR-FRET | FGF22 binding | RanGTP-Imp inh | MLL AF4-AF9 inh | HNF4A DNA FP
Cc1c(NC(=O)CN2CCN(c3ccccc3)CC2)c(=O)n(-c2ccccc2)n1C | 0.67 | -0.4 | 2% | · | -1.1 | · | -1.1
OCCC1CN(Cc2cnc(-c3cccc4ccccc34)nc2)CCN1C1CCCCC1 (centres undefined) | 0.65 | 1.6 | -6% | i | -0.7 | 6.2 | -3.7
O=C(Nc1ccc(F)cc1)NC1(C(=O)NCc2cccs2)CCCCC1 | 0.66 | 1.6 | 5% | i | -5.5 | 1.6 | 0.8
Clc1ccc2c(N/N=C/c3ccccc3Br)ccnc2c1 | · | · | 4% | i | -0.3 | -0.6 | 11
Cc1c(Cl)cnc(NC(=O)COC(=O)c2ccc3ncsc3c2)c1Cl | 0.73 | -0.9 | 2% | i | -1.0 | -0.1 | 0.3
COCCCNC(=O)c1c[nH]c2ccc(S(=O)(=O)N3CCc4ccccc43)cc2c1=O | 0.7 | 5.0 | 3% | i | 6.8 | -0.5 | 3.3
Cc1cc(C)c(S(=O)(=O)N2CCN(C(=O)C(C)Cn3nc(C)nc3C)CC2)c(C)c1 (centres undefined) | 0.66 | 3.4 | · | i | -3.0 | 1.1 | 2.0

Compound activity as filed in PubChem BioAssay.
